Assay outcomes deposited in PubChem by ICCB-Longwood Screening Facility, Harvard Medical School.
MgrA DNA FP – modulators of Staphylococcus aureus MgrA DNA binding | fluorescence polarization | inhibition, %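 (about 10 µg/mL by stock and volumes)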 | hit rate 0.13% among 84,000 | AID 602314;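 active means above 50% in either of two replicates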;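 further: 0% = protein plus DNA without compound and 100% = DNA alone without protein; higher means less MgrA bound to DNA so lower polarization; one replicate is shown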
S aureus helic – blocks Staphylococcus aureus DNA helicase; purified S. aureus helicase, fluorescence unwinding assay; about half of the hits fall short of the stated cut; inhibition, %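 (tested at about 80 µM)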; hit rate 0.05% among 120,000; AID 485395;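 active means both duplicates at 50% or more, or one of them with a favoured structure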;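 further: 0% = mean of negative control wells and 100% = mean of positive control wells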
Numbers without * were called inactive; . = no result given; & = joins results of further samples. This is a subset. The share of hits here may be higher or lower than overall.

Each structure is followed by: MgrA DNA FP | S aureus helic
CC(=O)NC1C(=O)N(C)c2c(C)cc(C)cc21 (stereo unspecified)
    . | -9
CCc1ccc(NC(=O)c2cc(S(=O)(=O)N3CCCCC3)ccc2F)cc1
    . | 6
O=C(NCCc1ccccn1)C1COc2ccccc2O1 (stereo unspecified)
    -0.5 | .
Fc1ccc(N(Cc2ccc3c(c2)OCO3)C(=S)Nc2ccc(Cl)c(Cl)c2)cc1
    -3.0 | .
O=c1oc(Cl)c(Cl)c2ccccc12
    -0.6 | .
CN(C)C(=O)c1cc(Br)cc2c1OCC2
    -0.2 | .
COC(=O)C(NC(=O)C12CC3(C)CC(C)(CC(C)(C3)C1)C2)C(C)C (stereo unspecified)
    . | 5
CCN(CC)S(=O)(=O)c1cc(C)ccc1OC
    -1.1 | -1
CCc1ccc2c(c1)C1CC(C)(O2)N(CC)C(=S)N1 (stereo unspecified)
    . | -8
COc1ccc(NC(=O)CC2C(=O)N(Cc3ccco3)C(=S)N2CCCN2CCN(c3ccc(F)cc3)CC2)cc1 (stereo unspecified)
    . | -37

The results go on.
Each structure is followed by: MgrA DNA FP | S aureus helic
OCCCc1cc(-c2ccccc2)n[nH]1
    -0.2 | .
O=C(O)Cc1csc(-c2ccsc2)n1
    . | 9
O=C1CN(C(=O)c2cc3ccccc3oc2=O)c2ccccc2N1
    . | -16
Cc1ccc(-c2noc(CCC(=O)NC3CCCC(C)C3C)n2)cc1 (stereo unspecified)
    . | 6
O=C(COC(=O)c1cccc(C(=O)OCC(=O)NC2CC2)n1)NC1CC1
    . | 3
CC1C=CCC2C(=O)N(c3ccc4c(c3)CCC4)C(=O)C12 (stereo unspecified)
    1.2 | 6
Cc1ccc2c(c1)-c1c(ssc1=S)C(C)(C)N2C(=O)C(C)C
    -0.6 | 8
O=C1NC(=O)C(C(CC(=O)C2CC2)c2ccccc2)C(=O)N1 (stereo unspecified)
    -4.0 | 19
NC(CC(=O)O)c1cccc(Oc2ccccc2)c1 (stereo unspecified)
    -3.4 | 8
COc1ccc(Cl)cc1N(CC(=O)N1CCN(Cc2ccccc2)CC1)S(C)(=O)=O
    5.3 | 1

Next section
Each structure is followed by: MgrA DNA FP | S aureus helic
Cc1cc(C)c2nc(NC(=O)C(C)C)sc2c1
    -5.4 | 9
O=S(=O)(c1cccs1)N1CCN(CCc2ccccc2)CC1
    0.5 | .
Cc1ccsc1C1c2c(C)nn(-c3ccccc3)c2N=C(c2ccccc2O)C1C(=O)O (stereo unspecified)
    . | -18
CN(C)c1ccc(/C=C/c2ccncc2)cc1
    3.8 | -8
CC(C)(C)NC(=O)CN1CCN(c2nc(-c3ccc(Cl)cc3)cs2)CC1
    -0.2 | 0
CC(C)c1ccc(/C=C2\Sc3ccccc3NC2=O)cc1
    0.8 | .
Cc1ccc(CN2CCS(=O)(=O)CC2)o1
    2.1 | .
CC(Oc1ccc2c(-c3ccccc3)cc(=O)oc2c1)C(=O)N1CCOCC1 (stereo unspecified)
    . | 9
COc1ccc(CN2CCC(N(C)Cc3ccccc3)CC2)cc1
    -2.5 | 14
CC(C)c1ccc(S(=O)(=O)CC#N)cc1
    0.8 | .

More compounds
Each structure is followed by: MgrA DNA FP | S aureus helic
CC(=O)N1CCc2cc(-c3csc(N)n3)ccc21
    . | -5
CC(=O)Oc1cncc(C(=O)O)c1
    -1.6 | 6
Nc1nnc(SCC(=O)OCC(=O)Nc2nc(-c3ccccc3)cs2)s1
    . | 4
COc1ccc(NC(=O)NC(C)c2c(-n3cccc3)sc3c2CCCC3)cc1 (stereo unspecified)
    . | 13
CC(OC(=O)C1CCCO1)C(=O)NC1CCCC1 (stereo unspecified)
    1.1 | 6
O=C(Nc1nc2c(s1)CCCC2)C1CCCCC1
    -0.4 | 2
FC(c1nc2ccccc2[nH]1)C(F)(F)F (stereo unspecified)
    -0.9 | 1
O=C(NCc1ccc(Cl)cc1)c1cc2c(s1)CSC2
    -0.7 | 9
COC(=O)c1ccc(N2C(=O)C3ON(c4ccccc4C)C(c4ccc(F)cc4)C3C2=O)cc1 (stereo unspecified)
    -0.2 | 5
CNCCCC12CCC(c3ccccc31)c1ccccc12
    1.0&-0.7 | .

Next part:
Each structure is followed by: MgrA DNA FP | S aureus helic
Cc1ccc(-c2csc(NC(=O)CC3CCCC3)n2)o1
    . | 3
O=C(NCc1ccc2c(c1)OCO2)C1CC(=O)N(CCc2ccc(Cl)cc2)C1 (stereo unspecified)
    -1.3 | .
CN(C)S(=O)(=O)c1ccc(C(=O)Oc2ccc(-n3ccnc3)cc2)cc1
    . | 12
Cc1ccc(NCc2nc3ccccc3s2)cc1
    . | -16
CC(C)(C)S(=O)(=O)Cc1nc(-c2ccc(C(F)(F)F)cc2)cs1
    . | -19
CN1C(=O)c2cccc3c(Cl)cc(Cl)c1c23
    . | 10
CCn1c(CN2CCCCC2)nc2cc(S(=O)(=O)N3CCCCC3)ccc21
    . | -5
COc1ccc2c(c1)c(C(=O)CSc1ccccc1)c(C)n2C
    -1.9 | -3
Cc1ccc(CSc2nnc(-n3c(=O)c(C#N)cc4c(=O)n5ccccc5nc43)s2)cc1
    -0.7 | 5
c1ccc(Cn2c(Nc3ccccc3)nc3ccccc32)cc1
    -1.4 | 10

(cont.)
Each structure is followed by: MgrA DNA FP | S aureus helic
CC1CCCC(C)N1C(=O)COC(=O)c1ccc2c(c1)OCO2 (stereo unspecified)
    . | 11
COc1ccc(CCN2C(=O)CNC2=S)cc1
    . | 16
Cc1ccc(OC(=O)c2c(-c3ccccc3)nnc3ccccc23)cc1
    -0.9 | .
Cc1ccc(S(=O)(=O)Nc2cncc(C(=O)NC3CCCC3)c2)cc1
    -1.8 | 2
CCc1cc2c(=O)c(-c3cscn3)coc2cc1O
    . | 5
CCN1C(=O)c2ccccc2Sc2ccc(C(=O)NCc3ccccc3)cc21
    0.0 | -12
N=c1n(CC(N)=O)c2ccccc2n1Cc1ccccc1Cl
    0.5 | 2
COc1ccc(OCCSc2nc3ccc(Br)cc3[nH]2)cc1
    0.6 | .
O=C(c1ccc(NS(=O)(=O)c2ccc3[nH]c(=O)[nH]c3c2)cc1)N1CCN(c2ccc(F)cc2)CC1
    . | -12
Clc1ccc(-c2cn3ccsc3n2)cc1
    -2.1 | .

Further entries follow.
Each structure is followed by: MgrA DNA FP | S aureus helic
O=C(Cn1c(=O)cnc2ccccc21)NCCc1ccccc1
    . | -11
Cc1c(-c2ccc(Cl)cc2)nc(N)c(C#N)c1-c1ccco1
    -1.2 | 2
Cc1ccccc1-c1n[nH]n2c1nc(=O)c1cc(Cl)ccc12
    . | 29
C#Cc1ccc(NC(=O)CCc2cc(OC)no2)cc1
    . | 1
NNc1nc(Nc2cccc(Br)c2)nc(N2CCOCC2)n1
    -1.7 | .
CC(O)c1nc2ccccc2n1CC(=O)C(C)(C)C (stereo unspecified)
    -1.1 | -6
CN1CCN(C(=O)C2CCC(C)(C(=O)O)C2(C)C)CC1 (stereo unspecified)
    5.8 | 14
Cc1nn(-c2ccccc2)c(N2CCCC2)c1/C=N/NC(=O)c1ccccc1O
    . | 15
Cn1ccnc1SCC(=O)N1c2ccccc2CCc2ccccc21
    -2.2 | 2
O=C(COCc1cc(-c2ccc3c(c2)OCO3)on1)Nc1cc(F)ccc1F
    . | 12

(list continues)
Each structure is followed by: MgrA DNA FP | S aureus helic
CC(C)NC(=O)CC#N
    . | -20
CCN(C(=O)NC1(C(F)(F)F)Oc2ccccc2O1)C1CCCCC1
    4.3 | 3
COc1cccc2c(=O)c(NC(=O)N3CCC(CO)CC3)c[nH]c12
    . | 14
CCN(CC)C(=O)CSc1ncnc2c1cnn2-c1ccccc1
    . | 4
CCOC(=O)c1ccc(NC(=S)NCCCN2CCOCC2)cc1
    -1.3 | .
CC(=O)c1ccc(N2C(=O)c3ccccc3C2=O)cc1
    -4.1 | .
Cc1cccc(OCc2nnc(SCn3nnc4ccccc4c3=O)o2)c1
    . | 8
Cc1ccc(Cn2c(C3CC(=O)N(c4ccccc4)C3)nc3ccccc32)cc1 (stereo unspecified)
    0.7 | 16
CCSC1=N/C(=C\c2ccc(N(C)C)cc2)C(=O)S1
    15 | -80
CCOC(=O)C1C(C)=NC(=O)NC1C (stereo unspecified)
    -2.2 | 6

Shown as labelled records: entries from further up
CC(=O)c1ccc(N2C(=O)c3ccccc3C2=O)cc1
  MgrA DNA FP: -4.1
  S aureus helic: .
Cc1cccc(OCc2nnc(SCn3nnc4ccccc4c3=O)o2)c1
  MgrA DNA FP: .
  S aureus helic: 8
Cc1ccc(Cn2c(C3CC(=O)N(c4ccccc4)C3)nc3ccccc32)cc1 (stereo unspecified)
  MgrA DNA FP: 0.7
  S aureus helic: 16
CCSC1=N/C(=C\c2ccc(N(C)C)cc2)C(=O)S1
  MgrA DNA FP: 15
  S aureus helic: -80

Going on with the list:
Each structure is followed by: MgrA DNA FP | S aureus helic
NC(=O)C1(Nc2ccccc2)CCCCC1
    -0.4 | 8
COC(=O)c1cc2c(ccn2C)n1CC(=O)N(C1CCCCC1)C1CCCCC1
    0.6 | -2
CC(C)C(=O)Nc1ccc(-c2csc(N)n2)cc1
    . | -10
O=C(NCCCN1CCN(c2ccc(F)cc2)CC1)c1ccc2nc3ccccc3c(=O)n2c1
    . | -16
CCOC(=O)c1nn(-c2ccc(OC)cc2)c(C(=O)OCC)c1NC(=O)C1CCCCC1
    1.1 | 6
Cc1cc(NC(=O)C(C)(C)C)n(C)n1
    -1.0 | .
CCc1ccc(N2COc3ccc4c(CC)cc(=O)oc4c3C2)cc1
    . | 3
CCC(C)NC(C)C(=O)Nc1ccc(Cl)cc1Cl (stereo unspecified)
    . | 9
CCCc1nnc(SCc2ccccc2C#N)o1
    0.4 | 5
CC(Sc1ccc2c(c1)OCCO2)C(=O)Nc1ccc2c(c1)OCCO2 (stereo unspecified)
    . | 4

Some of the entries so far, tab-delimited.
Molecule	MgrA DNA FP	S aureus helic
CC(=O)N1CCc2cc(-c3csc(N)n3)ccc21	.	-5
CC(=O)Oc1cncc(C(=O)O)c1	-1.6	6
Nc1nnc(SCC(=O)OCC(=O)Nc2nc(-c3ccccc3)cs2)s1	.	4

Additional compounds
Each structure is followed by: MgrA DNA FP | S aureus helic
N#CC1=C(c2ccc(Cl)cc2)Sc2ccccc2NC1=O
    . | 14
CCCN(CCC)C(=O)C1C2C=CC(C2)C1C(=O)O (stereo unspecified)
    . | -15
NC(=O)C1CCN(Cc2nc3ccccc3c(=O)[nH]2)CC1
    0.3 | 8
CC(C)(C)C(=O)C1=C(O)C(=O)N(c2ccccc2)C1c1ccccc1 (stereo unspecified)
    -2.1 | 18
O=C(O)c1cccn1-c1ncc(C(F)(F)F)cc1Cl
    0.8 | .
O=C(CN1C(=O)CCSc2ccccc21)N1CCc2ccccc21
    . | 15
CC1(C)CN(C(=S)Nc2ccc(F)cc2F)C1=O
    . | 29
CC(C#N)(NC(=O)CN1CCN(S(=O)(=O)c2ccccc2Cl)CC1)C1CC1 (stereo unspecified)
    . | 1
CCOc1ccccc1N(CC(=O)NC)S(C)(=O)=O
    1.0 | 23
O=C(c1cccc2c1OCCCO2)N(Cc1ccccn1)Cc1ccccn1
    -2.5 | .

The list goes on.
Each structure is followed by: MgrA DNA FP | S aureus helic
O=C(Nc1ccc(Oc2ccccc2)cc1)c1n[nH]c(=O)c2ccccc12
    . | 11
Cc1ccccc1NC(=O)Cc1nc(COC(=O)/C=C/c2ccco2)cs1
    . | -7
NC(=O)CCCc1c[nH]c2ccccc12
    . | 17
CSC1=C(C#N)C(=O)NC(c2ccc([N+](=O)[O-])cc2)S1 (stereo unspecified)
    8.8 | .
CC(C)c1cc(=O)[nH]c(SCc2nc3ccccc3[nH]2)n1
    -1.6 | 17
CC(Cn1nnc2ccccc21)C(=O)O (stereo unspecified)
    1.2 | 4
Nc1nnc(SCc2cc(=O)n3ccsc3n2)s1
    . | 12
O=C1S/C(=C/c2ccccc2F)C(=O)N1CNc1ccc(Br)cc1
    2.2 | .
O=C(CSc1nc(-c2ccco2)cc(C(F)(F)F)n1)Nc1ccccc1
    -0.2 | 10
COc1cc(C(=O)Nc2ccc(N3CCCCC3C)cc2)cc(OC)c1OC (stereo unspecified)
    1.1 | 1

(further entries)
Each structure is followed by: MgrA DNA FP | S aureus helic
Cc1cccc(/C=N/n2c(C)nnc2C)c1
    . | 14
Cc1cccc(N=c2oc3cc(O)ccc3cc2C(N)=O)c1
    . | -94
CCNc1nc(N2CCOCC2)c2ccccc2n1
    -1.7 | 5
CCC(=O)N1CCN(c2nc(C(C)C)nc3sc4c(c23)CCCC4)CC1
    -1.0 | 10
Cc1cccc(N2CCN(c3cccc(C)c3)C2c2cccnc2)c1
    -2.2 | 1
Cc1ccc(C(=O)OCC(=O)NC2CCCCC2)s1
    -1.0 | -7
COc1ccc(NC(=O)C(c2ccccc2)N(C)C(=O)Cc2cccs2)cc1 (stereo unspecified)
    . | 3
CC(C)(CC(=O)O)CC(=O)Nc1ccccc1Oc1ccccc1
    0.8 | .
COc1cc(CO)c(CC(=O)NN)cc1OC
    0.1 | .
N#Cc1cccc(C(=O)NCCc2ccc3c(c2)OCCO3)c1
    . | -8

(cont.)
Each structure is followed by: MgrA DNA FP | S aureus helic
Cc1cccc(C(=O)OCCN2CCOCC2)c1
    -4.6 | 25
Cc1[nH]c2ccccc2c1Cc1n[nH]c(=S)o1
    -1.5 | 7
COc1ccc(-n2nc(C(=O)N(C)Cc3ccccc3)c3c4ccccc4n(C)c3c2=O)cc1
    . | 16
COc1ccc(S(=O)(=O)NCc2ccc(C(=O)N(C)Cc3ccco3)cc2)cc1
    . | -24
Clc1cccc2c(NCCCN3CCOCC3)cnnc12
    . | 8
O=C1OC(c2ccccc2)=N/C1=C/c1ccco1
    . | 14
CCSC1=NN2CCS(=O)(=O)N=C2S1
    . | 13
O=C(O)c1ccccc1N=Cc1c(O)[nH]c2ccccc12
    4.5 | 17
Cc1ccccc1OC1OCCOC1Oc1ccccc1C (stereo unspecified)
    -2.4 | 9
Cc1csc(NC(=O)C(NC(=O)c2ccccc2)C(C)C)n1 (stereo unspecified)
    -1.0 | -17
CCOc1ccc(OCCCl)cc1
    1.1 | 10
O=C(O)CCC(=O)NC1CCCCC1
    -0.2 | -14
